# FGF22 binding: binders of human FGF22 protein, primary screen, FGF22 synaptogenesis inhibitor project, biophysical, thermal shift, single point. 340,000 tested, 1.5% active. Fibroblast growth factor 22 (Homo sapiens), Q9HCT0. calls only at 9.99 µM. recombinant FGF22 thermal shift, SYPRO orange fluorescence; percent of sucrose octasulfate shift, DMSO zero;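 active means melting point raised past a set limit in the mean and every replicate; inconclusive means no clear call; three in four hits are not shown here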
# Target sequence (Q9HCT0 whole entry, looked up): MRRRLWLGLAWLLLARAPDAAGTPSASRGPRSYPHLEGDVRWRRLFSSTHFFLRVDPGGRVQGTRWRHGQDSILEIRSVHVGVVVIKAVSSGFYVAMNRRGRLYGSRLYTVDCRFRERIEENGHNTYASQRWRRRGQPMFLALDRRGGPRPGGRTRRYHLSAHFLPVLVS
# MLL AF4-AF9 inh: inhibitors of AF4 peptide binding to AF9, primary screen, biochemical, AlphaScreen, biotin-AF4 peptide, FLAG-AF9, single point; Protein AF-9 (Homo sapiens), P42568; inhibition, % at 10 µM; 350,000 tested, 0.47% active;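 active means every replicate reaching a set inhibition limit, whatever the replicate mean, cut at about 25% in these data; inconclusive means mean inhibition reaches that limit but some replicates miss it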;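 further: 0% = plate neutral control median and 100% = total signal loss; the record names both 10 and 1 µM as test concentration; the first replicate is given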
# Ecoli rRNA inh: reduced GFP signal of wild-type E. coli, primary screen, bacterial rRNA inhibitor project, GFP/RFP fluorescence, OD600, single point; E. coli WT GFP vs humanized-ribosome RFP mutants, 24 h; hits give low values; DMSO median 0, no signal -100; GFP signal change (wild-type ribosome), % (test concentration not listed); 350,000 tested, 1.6% active;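 active means significant combined selectivity score with lowered wild-type GFP, culture density cut under 30%, mutant RFP and density less affected; inactive means any of these conditions unmet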; further: one replicate is shown; some compounds called inactive have numbers as strong as hits
# Vif TR-FRET: inhibitors of Vif binding to APOBEC3G peptide, primary screen, biochemical, TR-FRET, GST-Vif 1-94, biotin-A3G peptide, dose response retest (AID 1117319) | 260,000 tested, 0.57% active | Virion infectivity factor (Human immunodeficiency virus type 1 group M subtype B (isolate … | inhibition, %; hits with a dose series show IC50 in µM | TR-FRET GST-Vif / biotin-A3G peptide binding; higher % means a stronger effect; test concentration not given here; strong numbers were not always called active;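 active means above the screen mean plus three standard deviations and confirmed in dose response; inconclusive means results disagree or hit not tested in dose response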;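 further: Vif residues 1-94 fused to GST binding biotinylated APOBEC3G peptide 110-148; 0% = full assay without inhibitor and 100% = GST in place of GST-Vif; retest series ran down from 100 µM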
# HNF4A DNA FP: change in binding of human HNF4A to DNA, primary screen, biochemical, fluorescence polarization, FITC-DNA; 1 h; activity change, % at 10 µM; 360,000 tested, 0.3% active; AID 1224865, 2016; in the data active means activity change above about 30%, passing the limit was not always enough;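 further: controls were the assay level and a saturating level of protein; the project sought stronger binding though the title names inhibitors; some compounds called inactive have numbers as strong as hits; positive values seem to mean higher polarization but the record does not say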
# Target sequence (P41235 whole entry, looked up): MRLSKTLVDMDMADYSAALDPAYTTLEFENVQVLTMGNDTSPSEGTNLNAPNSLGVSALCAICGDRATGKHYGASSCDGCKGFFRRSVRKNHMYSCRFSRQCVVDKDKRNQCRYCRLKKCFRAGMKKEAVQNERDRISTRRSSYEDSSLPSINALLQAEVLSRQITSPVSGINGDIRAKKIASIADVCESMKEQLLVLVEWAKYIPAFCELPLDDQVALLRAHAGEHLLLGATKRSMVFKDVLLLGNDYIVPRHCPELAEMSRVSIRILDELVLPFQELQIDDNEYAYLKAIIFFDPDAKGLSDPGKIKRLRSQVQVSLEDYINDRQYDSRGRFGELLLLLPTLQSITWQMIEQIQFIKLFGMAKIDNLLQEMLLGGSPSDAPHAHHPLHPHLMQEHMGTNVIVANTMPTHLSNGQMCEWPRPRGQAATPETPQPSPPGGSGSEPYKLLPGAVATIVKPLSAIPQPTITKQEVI
# Ecoli growth: E. coli growth inhibition, primary screen, OD600 | 330,000 tested, 0.21% active | OD600 absorbance (test concentration not listed) | Escherichia coli growth, 23 h; hits give low values;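 active means OD600 absorbance below the run mean of sample wells minus 3.6 SD, in any replicate, cut at about 0.56 in these data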;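 further: stock transfer was 300 nL into about 60 µL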
# ALR H2O2 inh: inhibitors of human ALR sulfhydryl oxidase, primary screen, biochemical, H2O2 detection, HRP-luminol luminescence, single point. FAD-linked sulfhydryl oxidase ALR (Homo sapiens), P55789. purified ALR, DTT oxidation. inhibition, % (test concentration not listed). 290,000 tested, 3.8% active;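 active means mean and each replicate at 75% or more; inconclusive means only one of the two met; inactive means neither met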;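 further: stock transfer was 7.5 nL into about 7.5 µL; 0% = neutral wells and 100% = wells with inactivated enzyme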
# Target sequence (P55789 whole entry, looked up): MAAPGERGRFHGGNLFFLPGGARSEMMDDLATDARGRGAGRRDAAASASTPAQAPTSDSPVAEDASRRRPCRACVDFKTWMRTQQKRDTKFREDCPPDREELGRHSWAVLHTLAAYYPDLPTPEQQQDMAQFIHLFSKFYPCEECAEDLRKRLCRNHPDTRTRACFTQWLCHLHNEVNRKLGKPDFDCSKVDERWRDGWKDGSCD
# Ecoli rRNA inh OD600: also measured in Ecoli rRNA inh; calls as there; OD600 change, %; measured here: OD600 growth;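 optical density of the mix in the first replicate; 0 = DMSO median and -100 = no signal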
# Ecoli rRNA inh RFP: further read-out of Ecoli rRNA inh, marked with its call; RFP signal change, %; measured here: RFP humanized mutant strains;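 first replicate; 0 = DMSO median and -100 = no signal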
# * marks the source's active call; other numbers are inactive results; i = inactive; ? = inconclusive; / = no result given. The list is partial. The share of hits here may be higher or lower than overall.
SMILES,FGF22 binding,MLL AF4-AF9 inh,Ecoli rRNA inh,Ecoli rRNA inh OD600,Ecoli rRNA inh RFP,Vif TR-FRET,HNF4A DNA FP,Ecoli growth,ALR H2O2 inh
Cc1c(CCO)c(=O)[nH]n1C(=O)c1c(F)cccc1F,/,/,/,/,/,-1%,-0.3,0.7,39
CO[C@H](CN(C)C(=O)c1cnccn1)[C@H](C)CN([C@@H](C)CO)S(=O)(=O)c1ccccc1,i,1.0,6,13,0.1,/,/,/,/
C/C(=N\NC(=O)Cc1c(C)[nH][nH]c1=O)c1cccc(Br)c1,i,2.2,12,4,-2.1,-2%,-4.4,/,/
N#Cc1cc2c(nc1SCC(=O)O)CCCC2,/,/,/,/,/,0%,-3.8,0.71,-5
COc1ccc(-c2cc(C(=O)Nc3sc4c(c3C#N)CCCC4)c3ccccc3n2)cc1OC,/,/,/,/,/,3%,2.8,0.76,-2
Cc1ccc(NC(=O)COc2ccccc2)cc1S(=O)(=O)N1CCCCCC1,i,0.6,-14,-12,3.5,-2%,-2.8,0.65,6
Cc1ccc(C(O)CN2C3=NCCN3c3ccccc32)cc1 (centres undefined),/,/,/,/,/,-2%,0.0,0.72,1
CCOC(=O)C1=CNS(=O)(=O)NC1c1ccccc1 (centres undefined),i,-2.6,4,2,3.0,1%,-2.8,0.72,/
O=C(NNC(=O)c1ccc[nH]1)Nc1cccc(C(F)(F)F)c1,/,-1.3,14,9,0.4,8%,2.7,0.64,-1
O=C(NCCc1ccccc1)c1c(F)c(F)c(F)c(F)c1F,i,-4.1,3,16,-4.6,?,0.6,0.69,11
C[C@@H]1CCCCO[C@H](CN(C)Cc2ccccc2)[C@@H](C)CN([C@@H](C)CO)C(=O)c2cc(NC(=O)CCC(F)(F)F)ccc2O1,i,-2.1,0,7,-1.1,/,/,/,/
CC1(C)CC(=O)c2cnc(NCc3ccco3)nc2C1,/,/,/,/,/,1%,1.5,0.76,3
C[C@@H](O)C#Cc1cnc2c(c1)C(=O)N([C@@H](C)CO)C[C@H](C)[C@H](CN(C)C(=O)Cc1ccncc1)O2,i,-9.7,1,5,-0.9,/,/,/,/
O=C(NCCc1cccc(Cl)c1)c1cccc(-n2cnnn2)c1,/,-1.0,-2,1,-1.3,2%,1.1,0.69,/
CC(C)n1c(SCC(=O)Nc2ccc(F)cc2)nnc1C1CC1,i,0.4,6,10,1.3,7%,-1.4,0.67,20
O=C(Nc1ccccc1C(=O)NC1CC1)c1ccccc1,i,1.3,18,14,2.8,-10%,2.4,0.66,-2
Cn1c(Cn2c(=O)sc3ccccc32)nnc1SCC(=O)NCc1ccco1,i,-1.4,7,8,-0.9,22%,2.0,0.73,/
COc1ccc(S(=O)(=O)NC(C(C)C)C(C)C)cc1OC,/,/,/,/,/,?,0.6,0.77,3
COCCN1C(=O)c2ccccc2C(C(=O)NCc2ccco2)C1c1c[nH]c2ccccc12 (centres undefined),/,/,/,/,/,14%,-3.0,0.71,-1
CC(=O)N(C)C[C@H]1Oc2ncc(C#Cc3ccccc3F)cc2C(=O)N([C@H](C)CO)C[C@@H]1C,i,-2.5,-2,-4,4.0,/,/,/,/
Cc1cccc2c(C(=O)N3CCN(c4ccccc4)CC3)cc(-c3ccncc3)nc12,i,11,0,-7,6.5,2%,-2.5,0.75,-7
O=C(NCC1CCCO1)c1ccc(NC(=O)C2C3C=CC(C3)C2C(=O)O)cc1 (centres undefined),/,/,/,/,/,7%,3.0,0.7,-20
CC(=O)N(C)C[C@@H]1Oc2ncc(C#Cc3ccccn3)cc2C(=O)N([C@@H](C)CO)C[C@@H]1C,i,-10,10,17,0.6,/,/,/,/
COCCNC(=O)CN(C(=O)CCC(=O)Nc1nccs1)c1ccc2c(c1)OCO2,i,-1.2,9,5,-1.4,/,-3.9,0.65,-7
CCNc1c(NS(=O)(=O)c2ccc([N+](=O)[O-])cc2)c(=O)oc2ccccc12,i,2.2,4,17,-2.0,/,0.5,0.64,/
Cc1ccc(S(=O)(=O)N(C)C[C@@H]2Oc3cc(C#Cc4ccccc4)ccc3S(=O)(=O)N([C@H](C)CO)C[C@H]2C)cc1,i,-0.4,0,-2,-1.1,/,/,/,/
Cc1ccc(C)c(N2CCN(C(=O)c3ccc(Cn4c(=O)[nH]c5ccccc5c4=O)cc3)CC2)c1,/,/,/,/,/,28%,-3.3,0.72,-8
COc1ccc(NC(=O)Nc2ccc3c(c2)C(=O)N([C@@H](C)CO)C[C@@H](C)[C@@H](CN(C)Cc2ccccc2)O3)cc1,i,6.3,1,-6,2.7,/,/,/,/
CCC(=O)N1C[C@H](C)[C@@H](OC)CN(C)C(=O)c2cc(NC(=O)C3CC3)ccc2OC[C@@H]1C,i,-3.1,-1,-1,-0.2,/,/,/,/
COc1ccc(-c2csc(NCCc3nc4cc(Cl)c(Cl)cc4n3CCCO)n2)cc1,i,/,-21,-22,22,/,2.5,0.71,1
CC(=O)Nc1nc2ccccc2n1Cc1ccccc1C,/,/,/,/,/,0%,-1.2,0.73,-8
Cc1cccc(N2CCN(S(=O)(=O)c3ccc4c(c3)CC(C)N4C(=O)C3CC3)CC2)c1C (centres undefined),i,0.1,6,17,-0.2,/,1.7,0.76,-5
COc1ccccc1N1CCN(Cc2cc(Br)c(O)c3ncccc23)CC1,i,27*,-26,-57,-16,26%,-0.4,0.8,-3
COc1ccc(-c2cc(C(=O)NCc3cn(C)nc3C)c3ccccc3n2)cc1OC,i,-0.9,/,/,/,/,2.8,0.7,-14
O=C(/C=C\c1cn(-c2ccccc2)nc1-c1cccs1)N1CCOCC1,i,3.3,-25*,-11*,-11*,0%,-0.8,0.68,-5
COc1ccc(Br)c(C=O)c1OS(=O)(=O)c1ccc(C)cc1,i,-0.4,-38,-57,-13,0%,-2.7,/,/
Cc1cc(S(=O)(=O)n2cnc3ccccc32)c(C)cc1Cl,/,/,/,/,/,?,0.8,0.7,-7
Cc1cc(Br)ccc1OCCCCN1CCCCC1,i,5.0,-5,-11,-0.6,22%,5.9,0.68,/
O=C(C[C@H]1C/C=C\C[C@H](Cc2ccc(F)cc2)C(=O)O[C@@H](c2ccccc2)CNC1=O)N[C@@H](CO)Cc1ccccc1,i,2.3,1,11,7.1,/,-3.5,/,23
CN1C(=O)c2cc(NS(C)(=O)=O)ccc2OC[C@H]2O[C@H](CC(=O)NC3CCCCC3)CC[C@@H]21,i,-3.0,4,12,0.8,/,/,/,/
CC(Oc1cccc(Cl)c1)C(=O)Nc1cc(S(=O)(=O)N2CCOCC2)ccc1N1CCCC1 (centres undefined),i,-1.8,18,3,7.0,/,2.4,/,-2
O=C(Nc1ccc2c(c1)[C@@H]1C[C@H](CC(=O)N3CCc4ccccc4C3)O[C@H](CO)[C@@H]1O2)c1cccnc1,i,2.5,-2,-7,-0.7,/,/,/,/
COc1ccc(N=C2S/C(=C\c3ccc(N4CCOCC4)o3)C(=O)N2CCc2c[nH]c3ccccc23)cc1,/,/,/,/,/,?,132,0.66,-5
C[C@@H]1CN([C@@H](C)CO)C(=O)c2cc(NC(=O)c3ccccc3)ccc2O[C@@H](C)CCCCO[C@H]1CN(C)C(=O)Nc1cccc2ccccc12,i,0.9,7,9,1.3,/,/,/,/
CNc1nc(OC)nc(N2CCOCC2)n1,/,/,/,/,/,3%,-1.6,0.75,-9

# Six entries from above, as tab-separated lines:
canonical_smiles	FGF22 binding	MLL AF4-AF9 inh	Ecoli rRNA inh	Ecoli rRNA inh OD600	Ecoli rRNA inh RFP	Vif TR-FRET	HNF4A DNA FP	Ecoli growth	ALR H2O2 inh
COc1ccccc1N1CCN(Cc2cc(Br)c(O)c3ncccc23)CC1	i	27*	-26	-57	-16	26%	-0.4	0.8	-3
COc1ccc(-c2cc(C(=O)NCc3cn(C)nc3C)c3ccccc3n2)cc1OC	i	-0.9	/	/	/	/	2.8	0.7	-14
O=C(/C=C\c1cn(-c2ccccc2)nc1-c1cccs1)N1CCOCC1	i	3.3	-25*	-11*	-11*	0%	-0.8	0.68	-5
COc1ccc(Br)c(C=O)c1OS(=O)(=O)c1ccc(C)cc1	i	-0.4	-38	-57	-13	0%	-2.7	/	/
Cc1cc(S(=O)(=O)n2cnc3ccccc32)c(C)cc1Cl	/	/	/	/	/	?	0.8	0.7	-7
Cc1cc(Br)ccc1OCCCCN1CCCCC1	i	5.0	-5	-11	-0.6	22%	5.9	0.68	/

# More structures.
SMILES,FGF22 binding,MLL AF4-AF9 inh,Ecoli rRNA inh,Ecoli rRNA inh OD600,Ecoli rRNA inh RFP,Vif TR-FRET,HNF4A DNA FP,Ecoli growth,ALR H2O2 inh
CC[C@]12c3[nH]c4cc(CCC(=O)N(C)C)ccc4c3CCN1C(=O)[C@@H](CC(=O)NCCCOC)C[C@@H]2C(=O)N1CCN(C(=O)c2ccco2)CC1,i,-4.7,0,7,-3.6,/,-1.0,0.68,/
CCn1ccnc1CN(C)C(=O)c1ccc(OC2CCN(CCc3ccccc3)CC2)cc1,i,-0.7,1,7,-0.1,6%,-2.1,0.67,-11
Cc1cc(C)c(C)c(S(=O)(=O)N2CCC(C(=O)OCC(=O)NC3CCS(=O)(=O)C3)CC2)c1C (centres undefined),i,4.9,-24,-40,-0.6,1%,-0.2,0.67,-1
CC1(C)CC(=O)C(Sc2nnc(-c3ccc(O)cc3)n2CC2CCCO2)C(=O)C1 (centres undefined),i,-18,26,7,0.6,28%,-3.2,0.7,-1
C[C@H]1CN([C@@H](C)CO)C(=O)c2cccc(NC(=O)Nc3ccc4c(c3)OCO4)c2O[C@@H]1CN(C)Cc1ccc(C(F)(F)F)cc1,i,4.1,-3,-3,5.5,/,/,/,/
CCN(C(=O)COC(=O)/C=C/c1ccc(OC)c(OC)c1)c1c(N)n(Cc2ccccc2)c(=O)[nH]c1=O,i,-2.0,5,11,-2.3,/,-0.9,0.68,/
CCOC(=O)C1(C(F)(F)F)N=C(C(F)(F)F)Nc2ccc(F)cc21 (centres undefined),/,/,/,/,/,23%,-8.2,0.72,/
Cc1c(NC2(C#N)CCCCC2)c(=O)n(-c2ccccc2)n1C,i,0.2,13,12,1.1,6%,-3.5,0.66,41
CC(C)(C)NC(=O)CN(C(=O)C1(C)CC(=O)N=C2C=CC=CN21)C1CCCC1 (centres undefined),/,/,/,/,/,1%,-1.2,0.69,-4
CC(=O)NCCOC(=O)Nc1sc(=S)n(C)c1C,/,/,/,/,/,?,-2.5,0.68,43
C[C@@H]1CNC(=O)c2c(C(=O)N(C)Cc3ccccc3)ncn21,i,2.4,14,3,1.5,/,/,/,/
COc1cccc(C(CNC(=O)C2CCN(C(=O)Nc3ccccc3)CC2)N(C)C)c1 (centres undefined),i,8.1,10,14,3.9,-15%,-2.1,0.7,/

# Screening data (PubChem BioAssay)
